NPYLR7 agonist: agonists of mosquito NPYLR7 receptor, primary screen, cell-based, Aedes aegypti, calcium fluorescence, mosquito biting behavior; AID 1259423, 2018; HEK293T NPYLR7/Galpha15, GCaMP6s calcium fluorescence; activation, % at 10 µM; 270,000 tested, 0.15% active; in the data active = activation above about 40%;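 note: 0% = vehicle and 100% = reference agonist at the receptor; some compounds past the cut are filed as inactive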
NPYLR7 agonist max-min: recorded beside NPYLR7 agonist, whose call it bears; activation, %; measured here: Max-Min RFU normalised activation; some inactives read as strong as hits;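 span of the calcium signal over five minutes; 0% = vehicle and 100% = native peptide agonist; compound fluorescence can raise it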
The depositor's hits bear a star; & = joins results of further samples. These rows are one share of the data (hit frequency here may not be typical).

SMILES | NPYLR7 agonist | NPYLR7 agonist max-min
CNC(=O)c1nnc2n1CCN(C(=O)c1ccc3sccc3c1)C2 | 6.4 | 5.3
CCc1ncc(CN2CCOC(CCCc3ccccc3)C2)cn1 (stereo not given) | 20.7 | 11.3
Cc1ccccc1-n1c(C)nnc1SCc1nc(C(=O)NCCCN2CCOCC2)cs1 | 1.1 | 9.9
Cc1ccccc1CN1CCN2C(C(N)=O)=COC2=NC1=O | -2.1 | -5.5
COc1cc(OC)cc(-c2nc(=S)n3ccsc3n2)c1 | 0.2 | -0.9
CCC1CN(C(=O)c2ccc(-c3ccncc3)nc2)CCN1C(C)C (stereo not given) | -3.6 | -5.4
CCC(CC)C(=O)NCCc1cc2cc(C)c(C)cc2[nH]c1=O | -0.3 | 8.0
Cc1ccc(-c2csc(-n3nc(C)cc3NC(=O)C3CC(=O)N(c4cccc(C)c4)C3)n2)cc1 (stereo not given) | -6.4 | -9.8
Cc1cccc(C(=O)NCCc2nc(C(F)(F)F)cs2)n1 | -20.1 | -22.4
O=C(NCc1ccc(OCC(F)(F)F)cc1)C1CSCCS1 (stereo not given) | -0.7 | 13.4

Continued; the last 6 above are carried over.
SMILES | NPYLR7 agonist | NPYLR7 agonist max-min
COc1cc(OC)cc(-c2nc(=S)n3ccsc3n2)c1 | 0.2 | -0.9
CCC1CN(C(=O)c2ccc(-c3ccncc3)nc2)CCN1C(C)C (stereo not given) | -3.6 | -5.4
CCC(CC)C(=O)NCCc1cc2cc(C)c(C)cc2[nH]c1=O | -0.3 | 8.0
Cc1ccc(-c2csc(-n3nc(C)cc3NC(=O)C3CC(=O)N(c4cccc(C)c4)C3)n2)cc1 (stereo not given) | -6.4 | -9.8
Cc1cccc(C(=O)NCCc2nc(C(F)(F)F)cs2)n1 | -20.1 | -22.4
O=C(NCc1ccc(OCC(F)(F)F)cc1)C1CSCCS1 (stereo not given) | -0.7 | 13.4
CCc1nc2c(OCC3CCCCC3)cccn2c1N(C)C(=O)Nc1ccccc1OC | -12.3 | -17.4
O=S(=O)(Nc1cccnc1)c1ccc(Cl)c(Cl)c1 | 2.0 | 9.0
Cn1c2ccccc2c(=O)c2c(=O)n(Cc3ccco3)c(CN3CCCCC3)nc21 | 2.7 | -1.5
Cn1ccc2c(-c3c(-c4ccccc4)ncn3CCN3CCOC3=O)cccc21 | 8.4 | 7.1
CN(Cc1ccc(Cl)cc1)Cn1nc(-c2ccncc2)n(C)c1=S | 15.1 | 8.9
O=C(CCNC(=O)/C(=C\c1ccc2c(c1)OCO2)NC(=O)c1ccccc1)OCCCl | 8.2 | 0.8
CC(C)(C)c1ccnc2nc(N3CCN(S(=O)(=O)c4ccc(Br)cc4)CC3)nn12 | 0.9 | -1.3
CCCc1nc(N2CCC(O)(c3ccccc3)C2)c2cnn(C)c2n1 (stereo not given) | 14.9 | 11.2
CCOc1cc(C2NC(=O)c3ccccc3N2C)ccc1O (stereo not given) | -15.3 | -18.2
CCC(CC)(CC)NCc1cc(Cl)ccc1OCC#N | 2.1 | -0.2
CCCNC(=O)N(CCOC)Cc1nccn1Cc1ccc(Cl)c(Cl)c1 | 8.6 | 16.0
COCCN(C)CC1CCCN1S(=O)(=O)c1c(C)cc(C)cc1C (stereo not given) | -0.3 | 0.0
CC1(CCC(=O)N2CCC(Sc3ccc(F)cc3)CC2)CCC(=O)N1 (stereo not given) | 14.0 | 5.0
C[C@]12CC[C@@H]3c4ccc(O)cc4C[C@@H](CCCCCCCCCS(=O)CCCC(F)(F)C(F)(F)F)[C@H]3[C@@H]1CC[C@@H]2O (stereo not given in full) | 6.3 | -5.0
CCOC(=O)c1nn(Cc2ccccc2)c2c1CN(C(=O)Cn1nc3ccccc3n1)CC2 | 15.3 | 4.1
COc1ccc(OC)c(NC(=O)Nc2ccc(Nc3ccc(-n4ccc(C)n4)nn3)cc2)c1 | -0.9 | -6.1
O=C(Cn1nc2c(c1NC(=O)c1cc3ccccc3o1)CSC2)NCC1CCCO1 (stereo not given) | -5.2 | -3.6
CNC(=O)Cn1nc(-c2ccc(F)cc2)c2sc(N3CCCC3)nc2c1=O | -2.5 | -5.0
CC1(c2ccc3ccccc3c2)NC(=O)N(CN2CCN(CCc3ccccc3)CC2)C1=O (stereo not given) | 7.1 | 10.8
Cc1cc(F)ccc1CC(=O)N1CCNCC1C(=O)Nc1ccc(F)cc1 (stereo not given) | 6.3 | 7.4
COc1cc(/C=N\n2c(=O)c(C(C)(C)C)nn3cnnc23)ccc1O | 3.0 | -2.0
CCNC(=O)NC(=O)C(C)Nc1c(C)nn(C)c1C (stereo not given) | 12.0 | 4.0
COCCCNC(=O)Nc1cn(CCOC)c2ccccc12 | 13.4 | 7.0
CNC(=O)c1ccccc1NC(=O)CCOc1cc(C)cc(C)c1 | 5.7 | 3.1
COCCCN(Cc1csc(COc2cc(C)cc(C)c2)n1)C(=O)c1ccc(Cl)cc1 | -20.2 | -12.4
Cc1cn2c3c(=O)n(Cc4ccccc4)c(=O)n(C)c3nc2n1C(C)c1ccccc1 (stereo not given) | 7.8 | 5.3
CC#CCNC1(CO)CC(C)CC(C)(C)C1 (stereo not given) | -2.1 | -7.4
Clc1ccc(Oc2nnnn2-c2ccccc2)cc1 | -4.6 | -5.5
COC(=O)CSc1nc2sc3c(c2c(=O)n1CC1CCCO1)CCCC3 (stereo not given) | -0.6 | -4.6
Cc1ccn2c(NC(C)(C)CC(C)(C)C)c(-c3ccc(OC(=O)c4ccc(Cl)cc4Cl)cc3)nc2c1 | 0.5 | 14.5
CC(c1cccnc1)N(C)Cc1cn[nH]c1C(=O)O (stereo not given) | 18.0 | 11.2
CCCC(=O)N1N=C(c2cccc(NS(=O)(=O)CC)c2)CC1c1ccco1 (stereo not given) | -9.7 | -10.7
Cc1cc(C)n2nc(C(=O)N3CCC4(CN(C)C(=O)O4)C3)cc2n1 (stereo not given) | -2.3 | -5.8
O=c1nc(SCc2ccccc2Cl)c2c([nH]1)CCCC2 | -2.9 | -5.0
COc1ccc(CN2COc3ccc4c(c3C2)O/C(=C\c2ccncc2)C4=O)cc1OC | 33.4 | 30.2
Cn1c(=O)[nH]c(=O)c2c1nc(N1CCNCC1)n2Cc1ccc(Cl)cc1Cl | -4.9 | -9.5
CCCOc1cc(S(=O)(=O)NCc2ccc3c(c2)OCO3)ccc1Cl | 7.5 | 5.0
Cc1oc(C)c(C(=O)NC(C)Cc2ccc(Cl)cc2)c1C (stereo not given) | -3.1 | -1.5
Cc1cc(C)c(N2CCC(=O)N2)c(C)c1 | 23.5 | 12.1
Cc1cccc(-c2noc(N3CCOCC3)c2CN(CCN(C)C)C(=O)CC(C)C)c1 | 8.6 | 9.3
CCOc1ccccc1C(=O)NC1(c2noc(C)n2)CCCCC1 | -2.7 | -3.6
OCC1(CCOc2ccccc2)CCCN(c2ncnc3nc[nH]c23)C1 (stereo not given) | -3.5 | -3.6
CCCc1[nH]n(-c2ccc(C)cc2C)c(=O)c1C1=C(N(CC)CC)C(=O)N(c2ccc(C)cc2)C1=O | -8.6 | -5.6
O=C(CCSCCC(=O)N1CCOCC1)N1CCOCC1 | 7.9 | 5.8
O=C(Cc1csc(Nc2ccc(F)cc2)n1)NCCC1=CCCCC1 | 3.4 | 0.2
Cc1ccc(N2CCn3c2nn(CC(=O)c2ccccc2)c(=O)c3=O)cc1 | 9.9 | 3.6
NC(=O)c1cc2c(cc1N1CCCC1)NC(=O)CC2C1CCNCC1 (stereo not given) | 4.5 | 2.5
COCCCN(CC(=O)N(Cc1ccc2c(c1)OCO2)Cc1cccs1)C(=O)COc1ccccc1 | -3.7 | 6.0
COc1cc(C(=O)NCc2nnc(SCC(=O)N3CCc4ccccc43)n2-c2ccc(F)cc2)cc(OC)c1OC | -8.1 | 6.5
Cn1c(-c2ccncc2)nc2ccccc21 | -7.2 | -14.1

Profiles as entered above. Order of values: NPYLR7 agonist	NPYLR7 agonist max-min
Results for `CCCc1[nH]n(-c2ccc(C)cc2C)c(=O)c1C1=C(N(CC)CC)C(=O)N(c2ccc(C)cc2)C1=O` = -8.6	-5.6
Results for `O=C(Cc1csc(Nc2ccc(F)cc2)n1)NCCC1=CCCCC1` = 3.4	0.2
Results for `COCCCN(CC(=O)N(Cc1ccc2c(c1)OCO2)Cc1cccs1)C(=O)COc1ccccc1` = -3.7	6.0

The list goes on.
SMILES | NPYLR7 agonist | NPYLR7 agonist max-min
CCc1nnc2sc(-c3cc(C(C)C)[nH]n3)nn12 | -11.0 | -20.3
CN(C)C(CNS(=O)(=O)CCc1ccccc1)c1ccco1 (stereo not given) | -0.5 | -1.4
CC(C)NCC(O)COc1cccc2[nH]ccc12 (stereo not given) | -2.4&-7.9&6.0&13.0 | -4.6&-12.0&-15.7&14.8
O=C(CCC1CCN(C(=O)[C@@H]2C[C@@H]3C=C[C@H]2C3)CC1)Nc1ccc(F)c(Cl)c1 | 5.9 | 2.3
COCCCNc1ncnc2c1c(-c1ccccc1)cn2-c1ccc(C)c(Cl)c1 | -3.1 | -4.1
CN(Cc1csc(-c2ccccc2)n1)Cc1nc(Cc2cccc(F)c2)no1 | 7.9 | 11.0
Cc1nc(CC(=O)NC(C)c2ccccc2-n2cccn2)c(C)s1 (stereo not given) | 3.5 | -2.2
CCc1cc(NCC2CNCCOC2)nc(N2CCCCC2)n1 (stereo not given) | -0.7 | -4.6
COc1ccc(CCn2c(-c3cc(C)c(OC)cc3C)nc3ccc(Br)cc3c2=O)cc1 | 4.7 | 0.9
CN(Cc1cccs1)C(=O)CNC(=O)c1ccc2c(c1)CCC2 | -31.7&12.6 | -29.8&7.7
Cc1csc(/C(C#N)=C/c2ccc(OCC(N)=O)cc2)n1 | 2.7 | 2.2
O=C(Nc1ccccc1C(F)(F)F)c1cnn2c(C(F)(F)F)cc(-c3ccc(Br)cc3)nc12 | -4.1 | 0.0
Cc1ccc(F)c(NC2CCCN(C(=O)CCc3ccccc3)C2)c1 (stereo not given) | -2.6 | 1.2
CC(C)CCn1c(N2CCN(CCCc3ccccc3)CC2)nc2c1c(=O)[nH]c(=O)n2C | 5.1 | 2.8
CN(CCOc1ccccc1)C(=O)C1CCC(=O)N(CCN2CCOCC2)C1 (stereo not given) | 3.3 | -0.2
COCCNC(=O)c1cc(NC(=O)Nc2ccc(Cl)c(Cl)c2)ccc1N1CCC(C)CC1 | -7.2 | 6.4
Cc1nc(-c2ccccc2)nc(N2CCN(C(=O)c3ccccc3Cl)CC2)c1Cc1ccccc1F | -15.1 | -12.8
COc1cc(OC)cc(C(=O)N2CCN(C(C(=O)Nc3ccc(NC(C)=O)cc3)C3CCCC3)CC2)c1 (stereo not given) | 59.6* | 53.0*
CCc1nc(Cn2cnc(-c3ccccc3)c2-c2cc(C)cc(F)c2)no1 | 4.6 | 3.6
CC1CCC2(CC1)NC(=O)N(CN1CCCCC1C)C2=O (stereo not given) | 3.8 | 30.1
CC1(C(=O)NS(=O)(=O)Cc2cccc(Cl)c2)CCN1C(=O)Cc1ccccc1 (stereo not given) | -1.5 | -1.9
COc1ccc(N2CCN(C(=O)c3cccc(Br)c3)C(C)C2=O)c(OC)c1 (stereo not given) | 7.6 | 4.7
C[C@H](Cc1ccccc1)Nc1ncnc2c1ncn2[C@@H]1O[C@H](CO)[C@H](O)C1O (stereo not given in full) | 1.9 | -37.5
CN1C[C@@H](NC(=O)c2ccccc2Cl)C[C@H]1C(=O)NCc1ccccn1 | -0.5 | 0.6
CCCSc1nc(N)c2c3c(sc2n1)CCCC3 | 2.8 | 1.3
CC1CCN(c2nc(N)c(C#N)c(CC#N)c2C#N)CC1 | 3.7 | 1.6
O=c1cc(-c2ccccc2)nc(SC/C=C/c2ccccc2)[nH]1 | 11.5 | 3.6
CCOC(=O)C(CC)Sc1nnc(N2CCN(c3ccccc3)CC2)s1 (stereo not given) | -5.8 | 1.5
Cc1ccc(NC(=O)N2CCSC2c2ccc(F)cc2)c(C)c1 (stereo not given) | 12.2 | 14.6
O=C(CSc1nnc(-c2ccc(Cl)s2)o1)N1CCOCC1 | 14.0 | 8.7

Assay outcomes: PubChem, Fisher Drug Discovery Resource Center
